Screens as filed in PubChem BioAssay.
RE007 growth inh: less growth of the S. pombe RE007 Vpr strain. S. pombe RE007 Vpr strain, BacTiter-Glo ATP luminescence, 24 h; control for the full effect not named in the record. 360,000 compounds, 0.21% hits. AID 651644. Potency, µM (highest dose often 92.2 µM), without a hit: at the highest dose activity change, negative = less growth; active = well fitted falling curve with a large enough effect; inconclusive = small, poorly fitted or top-dose-only effect; inactive = no such curve, though single readings can be large or run the other way;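 further: on the % scale 0 is the no-effect control and ±100 the full control effect; nearly all actives have a fitted effect of over 50% in size; the assay follows cell death caused by Vpr and the record does not say whether a fall means rescue or toxicity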
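Fission yeast RE007 carrying one integrated HIV-1 vpr copy, seeded at OD 0.01 in PMG+AL medium with 23 nL pinned compound. Grown 24 h at 30 degrees; viability read by BacTiter-Glo luminescence after 5 min.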
LASV entry inh: blocks Lassa virus binding to or entry into cells | Lassa virus pseudotype entry inhibition, cell reporter; control for the full effect not named in the record | Potency, µM (titrated, usually from 37.9 µM), without a hit: at the top dose activity change, negative = inhibition, most hits filed as inhibitors | 300,000 compounds, 1.2% hits | AID 540256; active means well fitted inhibition curve with a large enough effect; inconclusive means small, poorly fitted or top-dose-only effect, or effect the other way; inactive means flat fitted curve, though single readings scatter; tested in HEK293 cells; further: on the % scale 0 is the no-effect control and ±100 the full control effect; nearly all actives have a fitted effect of over 50% in size; luciferase read-out
Cruzain inh Det: cruzain (T. cruzi) inhibition with detergent | purified cruzain, Z-FR-AMC fluorescence, 0.01% Triton | 200,000 compounds, 0.43% hits | Potency, µM, for the others: max response, negative = inhibition, actives largely listed as inhibitors | AID 1478;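 further: plate controls were neutral wells for no effect and buffer without enzyme for full effect; nearly all actives have a fitted effect of over 40% in size; top concentration of the series not given in the record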
Target sequence (P25779 123-467 limits assumed): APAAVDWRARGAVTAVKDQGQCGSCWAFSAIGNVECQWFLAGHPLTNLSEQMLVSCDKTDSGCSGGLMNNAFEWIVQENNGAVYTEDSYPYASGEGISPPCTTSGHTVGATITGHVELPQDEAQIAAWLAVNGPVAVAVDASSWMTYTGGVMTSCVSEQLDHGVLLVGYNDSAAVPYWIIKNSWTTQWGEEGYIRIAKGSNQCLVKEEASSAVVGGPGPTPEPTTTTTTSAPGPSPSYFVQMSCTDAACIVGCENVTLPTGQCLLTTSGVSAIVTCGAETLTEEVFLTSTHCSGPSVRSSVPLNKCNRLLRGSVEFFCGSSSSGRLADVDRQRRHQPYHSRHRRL
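Compounds were screened in titration against cruzain (1.5 nM) with 0.01% Triton X-100 to counter colloidal aggregation. Activity was the AMC fluorescence increase over 60 s after adding 2 uM Z-FR-AMC at pH 5.5.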
StopGo reporter: lowers the luciferase signal of an FMDV 2A StopGo reporter. human cells with a luciferase reporter of 2A StopGo recoding; control for the full effect not named in the record. Potency, µM (series often up to 57.9 µM), for the others: at the highest dose signal change, negative = less light. AID 1159524. 410,000 compounds, 1.2% hits; active = well fitted falling curve with a large enough effect; inconclusive = small, poorly fitted or top-dose-only effect; inactive = no such curve, though single readings can be large or run the other way; tested in HEK293T cells; further: on the % scale 0 is the no-effect control and ±100 the full control effect; nearly all actives have a fitted effect of over 45% in size; luciferase light after 4 h
MARV entry inh: Marburg virus entry inhibition; 300,000 compounds, 1.8% hits; Potency, µM (highest dose often 37.8 µM), for the others: at the highest dose activity change, negative = inhibition, usual class: inhibitors; AID 540276; Marburg virus pseudotyped entry inhibition, cell reporter; control for the full effect not named in the record; about a third of the inactives were read at about 46 µM; active = well fitted inhibition curve with a large enough effect; inconclusive = small, poorly fitted or top-dose-only effect, or effect the other way; inactive = flat fitted curve, though single readings scatter; tested in HEK293 cells; about a fifth of its hits are not listed in these tables; further: on the % scale 0 is the no-effect control and ±100 the full control effect; luciferase read-out
SARS PLP yeast: SARS-CoV PLP inhibition in yeast. S. cerevisiae expressing SARS-CoV PLpro, growth rescue; control for the full effect not named in the record. Potency, µM (highest dose often 32.9 µM), for the others: at the top dose activity, positive = growth rescue. 330,000 compounds, 0.19% hits; active means well fitted rising curve with a large enough effect; inconclusive means small, poorly fitted or top-dose-only effect; inactive means no such curve, though single readings can be large or run the other way; further: 0% is about no effect; nearly all actives have a fitted effect of over 55% in size; growth read by luminescence after 48 h
NS1 inh: influenza NS1 inhibition. 270,000 compounds, 0.4% hits. S. cerevisiae slowed by influenza A NS1, growth recovery by OD600. Potency, µM (series often up to 46.1 µM), without a hit: at the highest dose activity, positive = more growth; active means well fitted rising curve with a large enough effect; inconclusive means small, poorly fitted or top-dose-only effect; inactive means no such curve, though single readings can be large or run the other way; further: nearly all actives have a fitted effect of over 50% in size
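A cell-based growth assay was used: compounds that relieve NS1-induced slow growth of budding yeast raise OD600. Assay medium was yeast nitrogen base with ammonium sulphate and -URA supplement, pH 6.0, with 2% galactose.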
Cruzain inh noDet: cruzain (T. cruzi) inhibition without detergent. AID 1476. 200,000 compounds, 2.3% hits. Potency, µM, for inactives: max response, negative = inhibition, most hits filed as inhibitors. purified cruzain, Z-FR-AMC fluorescence, no detergent. P25779;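 further: plate controls were enzyme without inhibitor for no effect and buffer without enzyme for full effect; nearly all actives have a fitted effect of over 40% in size; top concentration of the series not given in the record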
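Purified cruzain at 1.5 nM, pre-incubated 15 min with compound at room temperature in 100 mM sodium acetate pH 5.5, 5 mM DTT, 0.00005% Triton X-100. Reaction started with 2 uM Z-FR-AMC; AMC fluorescence increase over 60 s gives rate.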
Starred values were filed as active, the others as inactive; ? = inconclusive; . = no result given; & = joins results of further samples; [ ] = another dose, or the depositor's remark. Unless noted, the call rests on the fitted dose curve; in most records, active means well fitted curve in the direction sought with a large enough effect; inconclusive means small, poorly fitted or top-dose-only effect, or another doubt; inactive means no such curve, though single readings can be large; an effect the other way counts as inactive or inconclusive. Potency means the concentration at half of the fitted maximal effect.

Start of the data: the first four compounds, ahead of the listing:
SMILES	RE007 growth inh	LASV entry inh	Cruzain inh Det	StopGo reporter	MARV entry inh	SARS PLP yeast	NS1 inh	Cruzain inh noDet
CN(C)CCCn1c(SCC(=O)Nc2sc3c(c2C#N)CCCC3)nnc1-c1ccncc1	13%	-13%	-20%	-4%	-28%	-8%	4%	-5%
Cc1cccc(NC(=O)NC2CCCCCCC2)c1	8%	.	.	25%	.	-4%	-26%	.
O=C1C2C3C=CC(CC3)C2C(=O)N1/N=C/c1ccc(O)c(O)c1 (stereo not drawn)	-15%	?	3.6%	11%	-17%	15%	5%	0%
COc1ccc(-c2nc(NC(=O)c3n[nH]c(=O)c4ccccc34)sc2C)cc1	9%	1µM*	-0.8%	-9%	0.79µM*	-3%	21%	-22%

The list itself, previewed entries included:
SMILES	RE007 growth inh	LASV entry inh	Cruzain inh Det	StopGo reporter	MARV entry inh	SARS PLP yeast	NS1 inh	Cruzain inh noDet
CN(C)CCCn1c(SCC(=O)Nc2sc3c(c2C#N)CCCC3)nnc1-c1ccncc1	13%	-13%	-20%	-4%	-28%	-8%	4%	-5%
Cc1cccc(NC(=O)NC2CCCCCCC2)c1	8%	.	.	25%	.	-4%	-26%	.
O=C1C2C3C=CC(CC3)C2C(=O)N1/N=C/c1ccc(O)c(O)c1 (stereo not drawn)	-15%	?	3.6%	11%	-17%	15%	5%	0%
COc1ccc(-c2nc(NC(=O)c3n[nH]c(=O)c4ccccc34)sc2C)cc1	9%	1µM*	-0.8%	-9%	0.79µM*	-3%	21%	-22%
Cn1cc(C(F)(F)F)nc1-c1ccc(OCC(O)CNCCOc2ccc(O)c(C(N)=O)c2)cc1 (stereo not drawn)	-5%[18.4 µM]	13%	-4.8%	-3%&-15%	?	2%	-3%&1%	5%
CCOC(=O)CSc1nnc(-c2ccccc2)c(-c2ccccc2)n1	6%	1%[46.1 µM]	.	-22%	?	0%	-2%	.
Cc1ccc(OCC(O)CN2CCOCC2)cc1C (stereo not drawn)	5%	.	.	5%	.	-3%	-13%	.
COc1ccc(CCNC(=O)C2CCC(CNc3c(N4CCCC4)c(=O)c3=O)CC2)cc1OC (stereo not drawn)	5%	10%	0.1%	2%	2%&2%	1%	18%	-3%
COc1ccc(C(NC(=O)/C=C/c2ccco2)c2ccc(OC)c(OC)c2)cc1OC	4%	3%	-11%	4%	-3%	-1%	4%	?
C=CCN(Cc1cccs1)C(=O)COc1ccc2c(c1)OCO2	17%	?	.	58%[activator]	2%	-3%	.	.
CCOC(=O)c1cn2nc(OP(=S)(OCC)OCC)cc2nc1C	-16%	-20%	-11%	?	1%	1%	-41%	?
CCOc1ccccc1CNCCCSc1nnnn1C	.	1%[46.1 µM]	0.2%	3%	-29%[46.1 µM]	.	.	-2%
CCN1CCSc2ccc(C(=O)NC(C)c3ccccc3)cc21 (stereo not drawn)	.	?	0.3%	-16%	-27%[46.1 µM]	.	.	-5%
O=C(Nc1ccc(Oc2ccc(NC(=O)Nc3ccccc3Cl)cc2)cc1)Nc1ccccc1Cl	-6%	?	.	-10%	?	11%	15%	.
CCCCC(=O)c1ccc(OC(=O)c2ccc([N+](=O)[O-])cc2)cc1	-1%	11%[46.1 µM]	.	-9%	14%[46.1 µM]	.	.	.
CC(C)CCC(C)NC(=O)CN1C(=O)NC(C)(c2ccc3ccccc3c2)C1=O (stereo not drawn)	9%	?	.	?	?	-5%	26%	.
CC1=C(C#N)C(Nc2ccc(C)cn2)(C(F)(F)F)C(=O)N1 (stereo not drawn)	-1%[3.69 µM]	4%	-2.0%	0%	?	6%	-14%	3%
Cc1nc2sccn2c(=O)c1S(=O)(=O)Nc1ccc(N2CCN(C(=O)C(C)C)CC2)cc1	-10%	14%	-5.2%	30%&-4%[activator]	-21%&4%[46.1 µM]	-4%	26%	1%
C/C(CC1CC(COCC(C)C)OC1=O)=N\Nc1nc(-c2ccccc2)cs1 (stereo not drawn)	-3%	16%[14.3 µM]	-11%	25%	-19%	5%	4%	-25%
CCN(CC)S(=O)(=O)c1ccc(Cl)c(NC(=O)COC(=O)/C=C/c2ccc(O)c(OC)c2)c1	1%	0%	-7.8%	?	6%	21%	6%	-23%
COc1cccc(NC(=O)Cc2c(C(=O)O)[nH]c3ccccc23)c1	-2%	-1%	-2.3%	.	-11%	7%	12%	-5%
O=C(CN1CCCCC1)Nc1ccc(Br)cc1C(=O)c1ccccc1Cl	6%	-18%	-2.5%	-9%	-26%	0%	-12%	-9%
CC(=O)c1cccc(NC(=O)Nc2c(C)nn(C)c2C)c1	11%	21%	0.8%	-1%	12%	-3%	4%	0%
c1coc(Cn2nnnc2CN2CCN(C3CCCC3)CC2)c1	-20%	8%	-5.1%	-18%	4%	3%	1%	-4%
CC(C)c1ccc(NC(=O)C2Cc3ccccc3N2C(=O)c2ccccc2)cc1 (stereo not drawn)	.	-12%[46.1 µM]	-1.3%	0%	.	.	.	-9%
O=S(=O)(c1ccccc1)N1CCN=C1SCc1ccc(Cl)c(Cl)c1	19%	?	-4.7%	-24%	?	-14%	-6%	1%
CC(=O)c1cccc(NC2=NCC(C)S2)c1 (stereo not drawn)	8%	.	-1.2%	24%	.	-2%	3%	-12%
CCCCN(CC)CCCNC(=O)c1c(C)oc2ncnc(N3CCOCC3)c12	.	21%[46.1 µM]	-1.8%	-5%	.	.	.	-12%
CCOC(=O)N1CCN(C(=O)C2CCN(C(=O)c3ccc(C(C)(C)C)cc3)CC2)CC1	29%	.	.	7%	-3%[46.1 µM]	1%	-11%	.
CCOc1cccc(OCCCCn2ccnc2)c1	-29%	-5%	4.6%	-19%	0%	4%	-2%	-8%
C=C(C)COc1ccc(-c2ncncc2-c2ccc(OC)cc2)c(O)c1	-4%	?	.	-19%	-16%[46.1 µM]	-5%	4%	.
CCOC(=O)c1c(C)[nH]c(C(=O)OCC(=O)N(C)C2CCS(=O)(=O)C2)c1C (stereo not drawn)	6%	3%	1.7%	-2%	5%	-4%	-5%	6%
O=C(CN1CCOCC1)NCCNS(=O)(=O)c1ccccc1	8%	5%	.	-10%	0%	6%	9%	.
N#CC1=C2SC=C(c3ccc(Br)cc3)N2CCCC1=O	?	3%[46.1 µM]	.	-6%	?	-3%	.	.
COC(=O)C1C(C(=O)OC)C1(c1ccccc1)c1ccccc1 (stereo not drawn)	12%	0%	.	-5%	2%	0%	0%	.
COc1ccc(N(C(=O)CNC(=O)c2cccs2)C(C(=O)NCC2CCCO2)c2ccc(OC)c(OC)c2)cc1 (stereo not drawn)	-4%	12%	.	-18%	17%[46.1 µM]	-2%	-1%	.
COc1ccccc1CNC(=O)C(NC(=O)Nc1ccccc1)C(C)C (stereo not drawn)	2%	16%	.	-10%	8%[46.1 µM]	1%	-1%	.
CCOc1cccc2sc(N(CCCN(C)C)C(=O)c3ccc(S(=O)(=O)N(C)CC4CCCO4)cc3)nc12 (stereo not drawn)	-24%	10%	.	-3%	?	3%	-8%	.
COc1ccc(NC(=O)c2cc(F)c(F)cc2Cl)cc1Cl	3%	8%	.	22%	15%[46.1 µM]	0%	0%	.
CCOC(=O)c1noc2ncn(CC(=O)Nc3ccc(OC)c(Cl)c3)c(=O)c12	.	15%[46.1 µM]	-0.7%	-23%	.	.	.	10%
O=C(CNC(=O)c1cccs1)OCc1c(F)cccc1Cl	24%	0%	.	27%	23%[46.1 µM]	-1%	-4%	.
O=C(CSc1nncs1)NC1CCCc2ccccc21 (stereo not drawn)	6%	14%[46.1 µM]	.	19%	-3%[46.1 µM]	2%	.	.
Cc1cc2cc(C)c(NCCNC(=O)c3cccs3)nc2cc1C	-5%	-3%	.	?	?	0%	-4%	.
COc1ccc(-c2oc3ccc(N4CCOCC4)cc3c2/C=C/c2ccc(OC)c(OC)c2)cc1	11%	.	.	-8%	.	-3%	11%	.
CCOC(=O)C1(Cc2ccc(Cl)cc2)CCN(Cc2ccon2)CC1	-5%	.	.	-22%	.	0%	-5%	.
O=C(CC(c1cccs1)N1Cc2ccccc2C1=O)Nc1cccc(F)c1 (stereo not drawn)	.	-2%[46.1 µM]	-1.5%	0%	.	.	.	-10%
O=C(NCCc1ccc(Cl)cc1)c1ccc(NC2=NC3CS(=O)(=O)CC3S2)cc1 (stereo not drawn)	-3%	.	.	-9%	.	4%	21%	.
NC(=S)N/N=C/c1ncc(C(F)(F)F)cc1Cl	-9%	?	.	-16%	?	9%	-39%	.
Cc1cc(/C=C2\C(=N)N3N=C(C(C)C)SC3=NC2=O)c(C)n1Cc1ccccc1	4%	9%	.	4%	-3%[46.1 µM]	-1%	7%	.
Cc1ccc(S(=O)(=O)N2CCCCC2)cc1	25%	.	.	-15%	.	1%	1%	.
Cc1ccc(CNC(=O)c2cc(-c3ccc(C)cc3)nc3n[nH]c(-c4ccc(F)cc4)c23)cc1	.	?	1.5%	-10%	.	.	.	-2%
OC(c1ccccc1)c1nc2ccccc2s1 (stereo not drawn)	-10%	2%	1.1%	17%	-11%	-1%	12%	-1%
COc1ccc(S(=O)(=O)N(C)CC(=O)Nc2cccc(C(C)=O)c2)cc1	13%	2%	3.4%	.	-15%	?	3%	-10%
O=C(O)CCNS(=O)(=O)c1ccc2ccccc2c1	2%	4%	4.1%	37%[activator]	3%	-3%	6%	7%
Cc1cc(C)n2nc(SCC(=O)Nc3c(C)nn(-c4ccccc4)c3C)nc2n1	-5%	14%	2.4%	-13%	27%	4%	-1%	-1%
Cc1ccc(C(=O)Nc2nc(-c3ccc(F)cc3)cs2)o1	?	4%[46.1 µM]	.	9%	-6%[46.1 µM]	.	-100%	.
COc1ccc(-n2ncc3c(=O)n(CC(=O)OCc4ccccc4)cnc32)cc1	3%	6%	1.9%	8%	22%	3%	-2%	1%
COc1ccc(CC(=O)Nc2nnc(SCc3ccccc3)s2)cc1S(=O)(=O)N1CCOCC1	18%	0%	-11%	?	?	6%	18%	?
